TRPV1 potentiator: enhances activation of the human vanilloid receptor TRPV1. Q8NER1. TRPV1-expressing cells, Fluo-8 calcium influx, capsaicin EC20 potentiation; host cell line not named in the record; control for the full effect not named in the record. potentiation, % at 8.33 µM. 0.02% of 320,000 active; active means potentiation above 80%; inconclusive means 30% to 80%; inactive means below 30%; further: 0% is about no effect
Target sequence (Q8NER1 whole entry, looked up): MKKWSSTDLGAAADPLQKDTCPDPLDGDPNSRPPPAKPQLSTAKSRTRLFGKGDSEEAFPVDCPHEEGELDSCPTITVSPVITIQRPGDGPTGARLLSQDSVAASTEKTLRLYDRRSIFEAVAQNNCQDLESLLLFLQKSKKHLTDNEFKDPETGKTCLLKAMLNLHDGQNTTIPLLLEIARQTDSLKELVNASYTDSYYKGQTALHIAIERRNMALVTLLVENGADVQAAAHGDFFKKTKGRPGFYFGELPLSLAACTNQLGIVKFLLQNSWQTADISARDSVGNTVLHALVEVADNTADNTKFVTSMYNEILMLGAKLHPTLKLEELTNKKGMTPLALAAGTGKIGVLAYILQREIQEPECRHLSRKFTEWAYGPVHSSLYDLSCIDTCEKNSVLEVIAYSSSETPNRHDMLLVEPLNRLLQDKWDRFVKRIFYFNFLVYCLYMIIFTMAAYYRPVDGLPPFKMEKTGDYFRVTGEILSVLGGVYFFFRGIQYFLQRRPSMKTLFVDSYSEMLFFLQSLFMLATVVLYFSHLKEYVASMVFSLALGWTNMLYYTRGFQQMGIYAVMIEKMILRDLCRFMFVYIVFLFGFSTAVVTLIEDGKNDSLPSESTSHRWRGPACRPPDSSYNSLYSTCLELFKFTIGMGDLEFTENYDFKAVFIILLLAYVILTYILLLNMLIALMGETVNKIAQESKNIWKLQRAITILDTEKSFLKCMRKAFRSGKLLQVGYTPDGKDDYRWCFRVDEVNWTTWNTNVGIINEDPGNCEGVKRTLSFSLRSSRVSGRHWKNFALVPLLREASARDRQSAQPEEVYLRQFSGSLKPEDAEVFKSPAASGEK
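TRPV1-expressing cells were cultured overnight at 35.5C and loaded with Fluo-8 calcium dye for 40 to 90 min at room temperature. After a 10 s baseline, compound was added and calcium influx was read kinetically for 3 min (ex 480/em 520 nm).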
Six1-Eya2 blk: inhibitors of human Six1/Eya2 interaction; Q15475+O00167; AlphaScreen GST-Six1/His-Eya2 binding, biochemical; hits give low values; control for the full effect not named in the record; activity change, % (test concentration not listed); 0.56% of 360,000 active; AID 651725; in the data active = activity change below about -65%; inconclusive = about -30% to -65%; inactive = above about -30%; further: on the % scale 0 is the no-effect control and ±100 the full control effect; compound concentration not given in the record
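Six1/Eya2 binding was read as AlphaScreen signal after compounds were pinned into GST-Six1 plus His-tagged Eya2 (5X stock 250/500 nM) in pH 8.0 Tris/NaCl/TCEP buffer, beads added, then incubated 1 h, 37 C, dark.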
D2 agonist: activates the human D2 dopamine receptor; activation, % (test concentration not listed); P14416; AID 624465; 0.084% of 360,000 active; DiscoveRx PathHunter D2 beta-arrestin, luminescence, 90 min; 100% = 57 uM dopamine signal; in the data active = activation above about 40%; inconclusive = about 15% to 40%; inactive = below about 15%; further: compound concentration not given in the record; the text of the record calls up to 30% inactive
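DiscoveRx PathHunter D2 beta-arrestin cells (2,100/well) attached overnight, then compound-stimulated 90 min at 37 C in HBSS/10 mM HEPES/0.1% Tween-20 buffer; beta-galactosidase complementation read by luminescence after 1 h at ambient temperature. Dopamine 57 uM final (EC100) as control.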
Sfp PPTase inh: blocks B. subtilis Sfp PPTase activity; Biochemical Sfp PPTase activity, qHTS; 3.5% of 310,000 active; Potency, µM, for the others: max response, negative = inhibition, hits mostly inhibitors; AID 1490; Q9F4F7; active means well fitted inhibition curve with a large enough effect; inconclusive means small, poorly fitted or top-dose-only effect, or another doubt; inactive means no such curve, though single readings can be large or run the other way;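 further: the enzyme is Sfp with the accession as filed and its product quenches rhodamine fluorescence; potency means the concentration at half of the fitted maximal effect; 0% = enzyme reaction without inhibitor and -100% = no enzyme wells; top concentration of the series not given in the record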
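After 15 min at room temperature with compound, 15 nM Sfp received 5 uM rhodamine-CoA plus 12.5 uM BHQ-2-ybbR (50 mM Hepes pH 7.6, 10 mM MgCl2). Rate came from the fluorescence difference over 30 min, ex 525/em 598 nm.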
PINK1 modulator: modulators of PINK1 expression; Potency, µM (series often up to 76.6 µM), inactives show at the top dose activation (PINK1 increase), actives largely listed as activators; 0.2% of 410,000 active; PINK1 immunofluorescence, high-content cytometry, 24 h; active = well fitted activation curve with a large enough effect; inconclusive = small, poorly fitted or top-dose-only effect; inactive = flat fitted curve, though single readings scatter; cell line not stated here;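 further: potency means the concentration at half of the fitted maximal effect; % of control where 0% means no effect; nearly all actives have a fitted effect of over 65% in size; a mitochondrial uncoupler was the plate control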
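Stable cell line, 250 cells/well, 12 h attachment; compounds pinned at 5 concentrations, 24 h; CCCP control. Fixed with nuclear dye, primary antibodies 12 h at 10 degrees C, secondary plus cell stain; laser-scanning cytometer read.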
CtBP-E1A inh: inhibitors of CtBP/E1A interaction; AlphaScreen GST-E1A/His-CtBP binding, 1536-well; hits give low values; control for the full effect not named in the record; activity change, % (test concentration not listed); 0.49% of 340,000 active; AID 651724; in the data active means activity change below about -65%; inconclusive means about -30% to -65%; inactive means above about -30%; further: on the % scale 0 is the no-effect control and ±100 the full control effect; compound concentration not given in the record
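Homogeneous bead-based format: GST-tagged E1A captured on glutathione donor beads, His-tagged CtBP on nickel acceptor beads; compounds precede bead addition by 2 h at 37 °C.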
D2 potentiator: potentiates the human D2 dopamine receptor allosterically | P14416 | DiscoveRx D2 beta-arrestin cells, luminescence, 90 min; 100% = 57 uM dopamine signal | potentiation, % (concentration not given with the values) | 0.23% of 360,000 active | AID 624464; active = potentiation of 50% or more; inconclusive = 30% to 50%; inactive = 30% or less;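 further: compound concentration not given in the record; tested on top of an EC20 dose of dopamine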
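PathHunter D2 cells, attached overnight at 37 deg C, received compound in DMSO plus dopamine at EC20 (50 nM final) for 90 min at 37 deg C. Beta-arrestin recruitment was read as luminescence after 1 h with detection reagent at ambient temperature.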
* hit, by the source's call; ? = inconclusive; . = no result given; & = joins results of further samples; [ ] = remark or other dose.

SMILES	TRPV1 potentiator	Six1-Eya2 blk	D2 agonist	Sfp PPTase inh	PINK1 modulator	CtBP-E1A inh	D2 potentiator
CCC(C)NC(=O)c1ccc2nc(-c3ccc(OC)c(OC)c3)c(-c3ccc(OC)c(OC)c3)nc2c1 (stereo not given)	11.5	5.9	3.5	16.6%	2.1%	-6.5	-10.1
O=C(Nc1ccc(Oc2cccnc2)cc1)c1cccc([N+](=O)[O-])c1	-17.5	-4.2	3.5	4.5%	1.5%	-3.0	6.1
Cc1ccc(NC(=O)CSCC(=O)NCCc2ccccn2)c(C)c1	6.8	3.3	-0.4	13.5%	1.5%	0.0	6.7
CN(Cc1ccccc1)C(=O)c1c[nH]c2ccc(S(=O)(=O)N3CCOCC3)cc2c1=O	5.4	-0.3	-2.4	10.0%	0.6%	-1.2	-10.7
COCCNC(=O)COc1ccc(Br)cc1Cl	12.0	7.0	-1.2	3.9%	0.7%	10.9	-6.9
CCC(=O)N1c2ccc(S(=O)(=O)N3CCCC3)cc2CC1C (stereo not given)	-3.4	7.9	-1.3	11.5%	-0.3%	.	-6.7
CCC(C)N(C(=O)COc1ccc(Cl)c2cccnc12)C1CCS(=O)(=O)C1 (stereo not given)	19.2	3.7	0.4	.	-4.0%	12.0	-5.4
O=C(O)CCC(=O)Nc1cccc(C(=O)Nc2ccc(Br)cc2)c1	0.3	-2.1	-2.9	-1.4%	6.0%	-4.7	3.0
Cc1ccc(C(=O)OC(C)C(=O)NC(C)CCc2ccccc2)o1 (stereo not given)	-15.4	4.4	-2.3	.	-1.0%	.	-0.8
Cc1nn(C)cc1C(C(=O)NC1CCCCC1)N(C(=O)Cc1cccs1)c1ccc(F)cc1 (stereo not given)	-5.0	0.0	-1.2	12.9%	15.6%	26.1	-8.7
O=C(NCc1cccc(C(F)(F)F)c1)c1ccc2nc([C@H]3C[C@H](O)[C@@H](CO)O3)[nH]c2c1	.	7.8	-2.1	.	-0.1%	0.1	-0.8
COc1cc(NC(=O)c2cc(-n3cnnc3)ccc2Cl)cc(OC)c1	-2.5	-8.5	-3.2	13.2%	3.6%	-10.2	22.9
COc1ccccc1NC(=O)Cc1nnc(SCC(=O)c2ccc(F)cc2)n1C	?	-1.8	8.8	16.6%	2.0%	7.1	-1.2
C[C@H](NC(=O)c1nc[nH]c1C(=O)N[C@@H](CCCCNC(=O)OC(C)(C)C)C(=O)OC(C)(C)C)C(=O)OC(C)(C)C	13.4	-1.4	4.9	13.4%	3.5%	0.7	0.1
O=C(NCc1ccccc1)C(c1cccnc1)N(C(=O)c1ccccn1)c1cccc(F)c1 (stereo not given)	18.0	-0.7	-1.0	3.4%	0.0%	0.0	-2.3
FC(F)(F)c1cccc(NCc2n[nH]c(=S)n2C2CCCCC2)c1	15.9	-6.6	-4.9	21.9%	1.3%	-8.5	-9.0
CCOC(=O)C1(CCc2ccccc2)CCN(C(=O)[C@@H]2C[C@@H](C)NC(=S)N2)CC1	-5.7	6.4	-2.9	-26.8%	0.1%	0.0	-0.6
O=C1CCC(=O)N1OCCOc1ccc2c(c1)CCC2	-5.0	-0.5	-2.3	5.8%	-1.0%	-3.9	-36.8
COC(=O)c1cccc(NC(=S)N2CCOCC2)c1	-15.0	9.2	-4.7	16.0%	0.2%	6.3	-0.5
Cc1nc2c(OCc3ccc(Cl)cc3Cl)cccn2c1N(C)CC1CC1	.	-5.2	-5.5	.	?	-25.5	-22.9
CCOC(=O)Cc1csc(NC(=O)c2ccc(N3CCOCC3)cc2[N+](=O)[O-])n1	-9.6	?	4.1	.	3.5%	?	4.8
CCOC(=O)[C@]12CCC=C1N(Cc1ccccc1)C(=O)[C@H](CC(=O)NCCCCc1ccccc1)C2	.	-4.0	.	.	29.1%	-2.6	.
CC(C)n1c(Nn2cnnc2)nc2ccccc21	3.4	-4.9	-3.2	7.4%	-1.3%	-2.2	-13.0
O=C(O)c1ccc(Nc2ncnc3ccccc23)cc1	-9.0	2.6	-0.8	-4.4%	0.0%	2.3	-7.3
O=C(O)CCC(=O)N1N=C(c2c(-c3ccccc3)c3cc(Cl)ccc3[nH]c2=O)CC1c1cccs1 (stereo not given)	-13.8	-3.3	2.1	-14.7%	2.0%	.	-1.7

New compounds follow:
SMILES	TRPV1 potentiator	Six1-Eya2 blk	D2 agonist	Sfp PPTase inh	PINK1 modulator	CtBP-E1A inh	D2 potentiator
C=CCC1Cc2c(Br)cccc2C(CC=C)N1 (stereo not given)	?	-0.5	3.6	16.9%	2.8%	10.9	2.9
CC(=O)c1cccc(NC(=S)NC(=O)c2ccc(C)cc2)c1	4.9	-1.9	-3.7	-8.2%	10.6%	3.7	-3.1
O=C1C=C(NCCNc2c(F)c(F)c(CO)c(F)c2F)CCC1	14.9	0.0	-5.2	8.7%	2.4%	-3.6	2.2
O=C(NCc1ccccc1)c1cc[n+](CC(=O)c2cccs2)cc1	7.1	8.3	-3.5	11.6%	0.7%	8.3	-17.1
O=C(NCc1ccc2c(c1)OCO2)c1ccc2snnc2c1	-10.3	0.7	-0.4	-7.2%	0.0%	4.7	-5.4
O=C(COc1ccccc1F)OCC(=O)c1ccc([N+](=O)[O-])cc1	.	8.4	4.2	.	2.5%	-1.3	9.4
CCCCOc1ccc(NC(=O)CSCC(=O)OCC)cc1	-15.4	1.7	0.7	4.0%	1.0%	0.0	22.8
CC1CCC(C(=O)NC(C(=O)NCc2ccccn2)C(C)C)CC1 (stereo not given)	29.4	24.9	-2.3	20.9%	0.1%	4.4	4.3
O=C(CS(=O)CC(=O)N(CC(=O)NC1CCCC1)C1CCCCC1)Nc1ccc(F)cc1 (stereo not given)	12.5	0.7	3.2	4.4%	1.0%[38.3 µM]	8.1	-11.1
CCOC(=O)c1ccc2nc3c(cc2c1)CCS3	-7.4	5.6	-4.1	6.1%	-0.2%[38.3 µM]	47.8	0.6
COc1ccc(OC(=O)Cc2cccc3ccccc23)cc1	0.5	13.7	-3.0	-4.1%	0.8%	23.0	-1.5
COc1cc(/C=C2/SC(=O)NC2=O)ccc1OCc1ccccc1	13.0	-13.7	4.8	-6.1%	-0.1%	?	-5.0
COc1ccc(-c2cn3ccc4ccccc4c3n2)cc1	7.3	3.8	-0.5	-16.6%	0.6%	-0.7	-19.0
O=C(NCc1ccncc1)c1cn(-c2ccccc2)nc1-c1cccnc1	-14.7	-23.1	-1.5	-0.2%	0.9%	.	23.0
CC(O)(c1ccc(F)c(F)c1)c1nc(-c2ccncc2)cs1 (stereo not given)	.	4.9	-4.2	.	3.2%	10.7	-13.1
Cc1nc2nc(SCc3ccccc3)[nH]n2c(=O)c1CCC(C)C	12.6	7.6	-3.4	18.1%	1.0%	.	-10.6
CCOc1ccc(-c2nc(CSCC(=O)N3CCN(c4cccc(OC)c4)CC3)c(C)o2)cc1	.	-15.9	-7.2	-5.1%	1.5%	-13.1	-3.9
COc1ccccc1N1CCN(C(=O)c2ccc3c(=O)n(Cc4ccco4)c(=S)[nH]c3c2)CC1	10.8	-12.1	-1.4	-0.3%	3.7%[38.3 µM]	-7.9	-6.9
C=CCNC(=O)c1ccc2nccnc2c1	-8.5	2.5	-0.6	16.5%	.	6.7	7.8
CN(C)C(=O)CCc1ccc2c3c([nH]c2c1)[C@]1(C)[C@@H](C(=O)N2CCOCC2)C[C@H](CC(=O)NCCCn2ccnc2)C(=O)N1CC3	.	10.1	2.5	.	-0.1%	3.6	.
O=[N+]([O-])c1cc([N+](=O)[O-])c(Oc2ccccc2F)cc1NN1CCCCC1	16.3	-11.9	0.5	11.5%	0.4%	5.1	-0.5
CCC(C)(C)NC(=O)C(c1ccncc1)N(C(=O)c1sc(C)nc1C)c1ccc(C)cc1 (stereo not given)	-14.3	3.1	-3.5	-2.3%	0.9%	.	-4.6
S=c1[nH]nc(-c2ccc3ccccc3n2)o1	4.7	-10.9	0.5	1.5%	0.1%	21.1	-24.4
CCC(C)C(NC(N)=O)C(=O)Nc1ccc(C)c(Cl)c1 (stereo not given)	6.6	6.6	-1.8	-14.1%	0.1%	8.0	2.2
Cc1cc(C#N)c(C)n1-c1cc(C(F)(F)F)ccc1N1CCOCC1	-10.1	-8.6	-0.1	2.3%	-0.1%[38.3 µM]	-7.8	0.7

(list continues)
SMILES	TRPV1 potentiator	Six1-Eya2 blk	D2 agonist	Sfp PPTase inh	PINK1 modulator	CtBP-E1A inh	D2 potentiator
N/C(=N\OC(=O)CCCc1ccccc1)c1ccccc1Cl	1.8	52.0	6.4	2.7%	6.0%	122.9	?
Nn1c(-c2cccc(Br)c2)n[nH]c1=S	9.3	12.8	-3.1	?	-1.8%	1.7	-13.3
CCN(C(=O)COc1ccccc1)c1nnc(-c2cccnc2)s1	3.4	23.8	1.3	3.6%	-1.0%	22.9	-27.1
CCn1c(=O)cc(SCC(=O)NCCCN2CCC(C)CC2)c2ccccc21	7.4	-1.6	1.4	-2.2%	3.8%	6.3	-8.4
CC(C)CC(OC(=O)c1cccs1)C(=O)NCc1ccco1 (stereo not given)	-10.0	-0.7	-3.1	?	5.5%	-0.5	-6.8
CC(C)CN(CCCNC(=O)CN1N=C(c2ccc(Cl)cc2)CCC1=O)CC(C)C	-1.2	-2.0	-0.4	0.0%	1.5%&6.9%	0.0	-7.2
COc1ccc(CNC(=O)COC(=O)CN2C(=O)C3CCCCC3C2=O)cc1 (stereo not given)	.	4.2	0.1	.	-0.5%	4.2	-5.9
NNC(=O)C=C1CCN(c2ncc(C(F)(F)F)cc2Cl)CC1	28.7	2.9	-2.8	-5.0%	1.4%	4.6	-7.4
CC(=O)N1CCCC(N2CCN(c3cccc(C(F)(F)F)c3)CC2)C1 (stereo not given)	?	1.9	-4.2	15.4%	-0.8%	-3.0	-4.6
N#CC(C#N)=Cc1c[nH]c(=O)c(C#N)c1Nc1ccccc1	.	-17.0	-6.3	.	-0.8%	-28.8	-1.7
CCOC(=O)c1nnn(-c2nc(OC)nc(N(C)C)n2)c1-c1ccccc1	13.0	4.5	0.6	2.0%	-1.3%	5.5	3.7

Just Six1-Eya2 blk, D2 agonist and D2 potentiator (three entries from above):
molecule | Six1-Eya2 blk | D2 agonist | D2 potentiator
COc1cc(NC(=O)c2cc(-n3cnnc3)ccc2Cl)cc(OC)c1 | -8.5 | -3.2 | 22.9
CC1CCC(C(=O)NC(C(=O)NCc2ccccn2)C(C)C)CC1 (stereo not given) | 24.9 | -2.3 | 4.3
COCCNC(=O)COc1ccc(Br)cc1Cl | 7.0 | -1.2 | -6.9

High-throughput results from PubChem BioAssay.
